Rango-impB inh – prevents formation of the Rango-importin beta complex; Rango CFP/YFP FRET sensor + importin beta, 45 min; Potency, µM (highest dose often 92.2 µM), without a hit: at the highest dose inhibition of complex formation; 0.031% of 340,000 active; AID 540263; active = rising FRET ratio curve, often small or poorly fitted; inconclusive = mostly compound fluorescence or quenching in the first reads; inactive = flat curves in all reads;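 also: potency is read from the fitted curve at half-maximal effect; 0% = DMSO wells and 100% = buffer wells lacking importin beta; nearly all actives have a fitted effect of over 15% in size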
Target sequence (Q14974 whole entry, looked up): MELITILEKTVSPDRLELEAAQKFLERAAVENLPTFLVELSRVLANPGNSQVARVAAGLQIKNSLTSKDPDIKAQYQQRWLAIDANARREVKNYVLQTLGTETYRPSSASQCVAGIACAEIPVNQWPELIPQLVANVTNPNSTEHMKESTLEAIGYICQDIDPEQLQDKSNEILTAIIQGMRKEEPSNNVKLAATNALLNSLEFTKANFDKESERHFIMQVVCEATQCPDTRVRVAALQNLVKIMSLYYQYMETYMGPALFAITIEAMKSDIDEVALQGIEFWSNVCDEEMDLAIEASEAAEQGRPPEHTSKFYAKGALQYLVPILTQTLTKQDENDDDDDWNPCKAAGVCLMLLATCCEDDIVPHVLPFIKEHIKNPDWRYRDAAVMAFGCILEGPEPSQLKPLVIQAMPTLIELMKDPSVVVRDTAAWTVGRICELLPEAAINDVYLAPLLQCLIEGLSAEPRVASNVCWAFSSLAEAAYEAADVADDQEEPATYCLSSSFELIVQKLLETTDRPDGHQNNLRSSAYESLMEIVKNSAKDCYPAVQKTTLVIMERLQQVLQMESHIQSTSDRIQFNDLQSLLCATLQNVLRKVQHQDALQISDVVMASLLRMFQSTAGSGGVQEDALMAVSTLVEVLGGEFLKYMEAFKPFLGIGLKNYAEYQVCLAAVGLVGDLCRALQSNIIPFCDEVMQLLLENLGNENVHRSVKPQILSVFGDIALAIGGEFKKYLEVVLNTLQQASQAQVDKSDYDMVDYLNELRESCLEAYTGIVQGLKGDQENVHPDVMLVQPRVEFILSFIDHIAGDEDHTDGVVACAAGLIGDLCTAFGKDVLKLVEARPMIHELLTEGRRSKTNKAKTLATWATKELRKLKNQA
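FRET biosensor (snurportin 1 IBB flanked by EYFP and cerulean), 50 nM, with compound 5 min, then 0.125 microM importin beta in PBS, 1 mM DTT, 0.02% Tween-20, 0.1% BSA. CFP/YFP ratio read after 45 min at room temperature; pre-read flags interference.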
GLA inh pH 4.5 – inhibitors of human alpha-galactosidase A at pH 4.5. P06280. purified enzyme, 4-MU-alpha-Gal fluorescence, pH 4.5. activity change, negative = inhibition, % at 105 µM. 230,000 tested, under 10 active. AID 1467; inconclusive = small, poorly fitted or top-dose-only inhibition, or a rising curve; inactive = flat fitted curve, though single readings scatter; no compound was filed as active;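 also: 0% = full activity with enzyme and -100% = basal without enzyme; dose as in the result columns while the protocol names 77 µM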
miR-21 reporter – miR-21 reporter, rising signal. 340,000 tested, under 10 active. Potency, µM (doses to about 38.3 µM), for inactives: at the top dose reporter change, positive = more light. HeLa miR-21 FLuc reporter, luciferase, 48 h. AID 2288; active = well fitted rising curve with a large enough effect; inconclusive = small, poorly fitted or top-dose-only effect; inactive = no such curve, though single readings can be large or run the other way;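 also: % of control where 0% means no effect; miR-21 action dims this reporter so a rising signal means less miR-21 action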
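Luminescence from a firefly luciferase reporter carrying a miR-21 binding site downstream, stably expressed under a CMV promoter in HeLa cells that make miR-21 endogenously, reports miRNA modulation after 48 h compound exposure up to approximately 40uM final.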
Rango release inh – inhibitors of RanGTP-induced Rango-importin beta complex dissociation. O95149+P62826. Biochemical FRET Rango-importin beta, RanGTP-induced dissociation. Potency, µM (highest dose often 46.1 µM), for the others: top-dose activity change, negative = inhibition. 0.071% of 340,000 active; active means falling FRET ratio curve, often poorly fitted, with flat reads before Ran was added; inconclusive means other falling curves, or compound fluorescence or quenching; inactive means flat or rising ratio curve;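 also: potency is read from the fitted curve at half-maximal effect; % of control where 0% means no effect; nearly all actives have a fitted effect of over 45% in size; -100% = wells without RanGTP and RCC1; the record marks most hits as doubtful in a second field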
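Quantitative HTS using a FRET biosensor: 0.1 uM Rango, 0.25 uM importin beta, 0.6 uM Ran, 2 mM GTP, 0.2 uM RCC1 final, PBS with DTT, Tween-20 and BSA. Post-read taken 45 min after Ran addition.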
* = called active by the depositor; ? = inconclusive; . = no result given; & = joins results of further samples; [ ] = dose if it differs, or a comment. Some of the compounds tested. The share of hits here may be higher or lower than overall.

structure | Rango-impB inh | GLA inh pH 4.5 | miR-21 reporter | Rango release inh
COC(=O)C1=C(c2cc3ccccc3s2)C[C@@H]2CC[C@H]1N2C(=O)N1CCCCC1 | 3.6% | . | . | 0%
O=c1[nH]c(=O)n(CCc2ccc(F)cc2)c(O)c1/C=N/N1CCCCC1 | -2.7% | -3 | -1% | -1%
Cc1ccnc(-n2c(-c3ccco3)nc3ccccc3c2=O)c1 | -0.2% | -1 | -6% | -14%
COC(=O)[C@@H]1C[C@H]1[C@@H](NP(=O)(c1ccccc1)c1ccccc1)c1ccccc1 | 3.9% | 3&-2 | -10% | 29%
CCC(=NCCc1c[nH]c2ccccc12)c1c(O)n(C)c(=O)n(C)c1=O | 3.6% | 2 | 24% | -21%
Cc1cccc(-n2c(O)c(C=NCc3cccnc3)c(=O)[nH]c2=O)c1C | -0.6% | 11 | -7% | 3%
CCCCCSc1cc(OC)c(CCN)cc1OC | -2.3% | -15 | 16% | 7%
CCCN(CC#CCO)CCC | -0.3% | 3 | -5% | 4%
CCOC(=O)[C@]12Cc3cc(C)ccc3[C@H]1N(Cc1ccccc1)C(=O)c1ccccc12 | -3.2% | . | . | 4%
NCCc1nc2ccccc2s1 | -0.4% | 3 | -4% | 1%
CCOc1ccc(N=Cc2c(O)n(C(C)(C)C)c(=O)[nH]c2=O)cc1 | ? | 0 | -11% | -9%
CC(C)CS(=O)(=O)C1=NN2C(=N)/C(=C\c3ccc(OC(=O)c4ccco4)cc3)C(=O)N=C2S1 | ? | . | 2% | 26µM*
C[N+]12CCC(CC1)C(C(O)(c1cccc(Cl)c1)c1cccc(Cl)c1)C2 (stereo not given) | -0.6% | -4 | -1% | -1%
CNC(=S)N(C)CCc1cc2c(c(OC)c1C=C1C(=O)NC(=O)NC1=O)OCO2 | -2.1% | 3 | -1% | 16%
Cc1sc2c(c1C)C(c1ccc(C(C)(C)C)cc1)=NCC(=O)N2CC(=O)Nc1nccs1 | 0.9% | -10 | 4% | ?
Nc1ccccc1C(=O)OC1CSC1 | -0.1% | -8 | -7% | 0%
COC(=O)OCC12CCC(O1)C1(C)C(=O)OCC21 (stereo not given) | -2.1% | 5 | -2% | -6%
CCC(C(=O)N1CCC2(CC1)OCCO2)c1ccccc1 (stereo not given) | -4.4% | -5 | -1% | 14%
CCC(C)C(=O)N[C@@H](c1ccccc1)[C@@H](O)C(=O)O[C@H]1C[C@@]2(O)[C@@H](OC(=O)c3ccccc3)C3[C@](C)(C(=O)[C@H](OC(C)=O)C(=C1C)C2(C)C)[C@@H](O)C[C@H]1OC[C@@]31OC(C)=O (stereo not given in full) | 1.0% | . | 15% | 1%
COc1cccc(CNCCc2c[nH]c3ccccc23)c1OC | -0.4% | -4 | -2% | 8%
O=C(CSC1c2ccccc2-c2ccccc21)N/N=C/c1ccccc1 | 0.6% | -14 | 10% | 1%
COc1cccc(N2C(=O)NC(=O)/C(=C\c3cn(C)c4ccccc34)C2=O)c1 | -0.6% | . | -3% | -12%
CC(C(=O)c1c[nH]c2ccccc12)N1CCSCC1 (stereo not given) | -3.0% | 3 | -12% | 8%
CCC(=O)N1N=C2C3CCN(CC3)C2C1c1ccc(C)cc1 (stereo not given) | -1.7% | -1 | -5% | 28%

Single records (already shown).
CCCN(CC#CCO)CCC as listed: Rango-impB inh: -0.3%; GLA inh pH 4.5: 3; miR-21 reporter: -5%; Rango release inh: 4%
CCC(=O)N1N=C2C3CCN(CC3)C2C1c1ccc(C)cc1 (stereo not given) as listed: Rango-impB inh: -1.7%; GLA inh pH 4.5: -1; miR-21 reporter: -5%; Rango release inh: 28%

Carrying on.
structure | Rango-impB inh | GLA inh pH 4.5 | miR-21 reporter | Rango release inh
[N-]=[N+]=CC(=O)OC[C@H](N)C(=O)O | 3.4% | -7 | -2% | -3%
CC[C@H]1CC2CN3CCc4c([nH]c5cc(OC)ccc45)[C@](C(=O)OC)(C2)[C@H]13 | -2.9% | . | . | -2%
C=CCn1c(C)c(C=C2C(=O)NC(=O)NC2=O)c2ccccc21 | ? | . | 8% | -17%
CC(=O)C1=C(C)OC(N)=C(C(=O)OC(C)C)C12C(=O)Nc1ccccc12 (stereo not given) | 1.5% | . | -4% | 3%
CCOP(=O)(Cc1cc(C(C)=O)c(C)o1)OCC | ? | 4 | -2% | 21%
Cn1nc(-c2ccc(OCC(=O)N3CCN(Cc4ccccc4)CC3)cc2)c2ccccc2c1=O | 8.4%&-2.6% | 5 | 19%&-1% | -10%&-5%
CCN1CCN(c2ccc([N+](=O)[O-])cc2C=C2C(=O)NC(=O)NC2=O)CC1 | 0.4% | -7 | -4% | -3%
COc1ccc2[nH]c(C)c(CCN3CCC(=O)C(C)C3C)c2c1 (stereo not given) | -0.9% | -15 | -4% | -5%
O=C(c1n[nH]c(=O)c2ccccc12)N1CCC2(CC1)OCCO2 | -0.8% | 2 | -1% | 2%
CCOc1ccc(-n2c(-c3ccoc3)nc3ccccc3c2=O)cc1 | 2.2% | 5 | 1% | 22%
COC(=O)c1ccccc1N=Cc1c(O)[nH]c(=O)[nH]c1=O | -0.4% | . | -1% | -5%
O=C1N(CN2CCOCC2)c2ccccc2C1(O)c1c[nH]c2ccccc12 (stereo not given) | 0.5% | -18 | -3% | -7%
Cc1ccc2c(c1)C1CN(C)CCC1N2C(=O)Cn1nnc(-c2ccccc2F)n1 (stereo not given) | -1.9% | -3 | 0% | -13%
N#CCCn1cc(C(=O)Nc2ccccc2Cl)c(-c2ccc([N+](=O)[O-])cc2)n1 | -0.3% | 0 | -1% | 12%
COc1ccc(OC)c(-n2c(O)c(/C=C3\C(C)=Nc4ccccc43)c(=O)[nH]c2=O)c1 | -2.7% | 6 | 1% | -12%
CCCOC1CCCN(C(=O)CCc2nnc(Cc3cccc(C)c3)o2)C1 (stereo not given) | -1.2% | 4 | -41% | -20%
CCOP(=O)(Cc1cc(C(=O)CC)c(C)o1)OCC | -2.2% | -12 | 0% | 11%
CN1C[C@H](CNC(=O)OCc2ccccc2)C[C@@H]2c3cccc4c3c(cn4C)C[C@H]21 | ? | -2&-22&-22 | 9% | -7%
CCOc1cc2c(cc1OCC)-n1cccc1C(c1cc(C)c(OC)cc1C)NC2 (stereo not given) | -0.3% | . | 17% | -8%
Cc1nc2ncnn2c(C)c1CCC(=O)N1CCC2(CC1)OCCO2 | 3.4% | -1 | -6% | 7%
CCOCC1(CCc2ccccc2)C(=O)NC(=S)NC1=O | 3.1% | . | . | -14%
COc1cccc(-c2nn(CCC#N)cc2C(=O)Nc2ccccc2Cl)c1 | -1.8% | . | 19% | -3%
COc1ccc(C(=O)N2CCC3(CC2)OCCO3)cc1 | -0.6% | . | -1% | -16%
CCCCc1nc(N2CCNCC2)c(C#N)c2c1CSC(C)(C)C2 | 0.7% | 0 | -8% | -5%
CCN(CC)c1nc2c(C)cccn2c(=O)c1C=C1C(=O)NC(=O)NC1=O | 0.8% | -5 | -1% | 3%
CSc1ncc(/C=C2/C(=O)NC(=O)N(c3ccc(C)cc3)C2=O)cn1 | 0.4% | 1 | 5% | 11%
COc1cc(C2c3cc4c(cc3CC3COC(=O)C32)OCO4)cc(OC)c1O (stereo not given) | -8.5% | . | . | 2%
CCCCn1c(O)c(C(C)=Nc2ccc(C(=O)O)cc2)c(=O)[nH]c1=O | 1.0% | 5 | 0% | 23%
CCC1C2Cc3ccc(O)cc3C1(CC)CCN2C (stereo not given) | -2.8% | . | . | -7%
Oc1cc(Cl)c(Cl)c(Cl)c1Cl | -1.2% | . | . | 3%
CC(=O)c1ccc(OC(C)C)c(Cc2c(O)[nH]c(=S)[nH]c2=O)c1 | -0.7% | -11 | -4% | 6%
CN(C)c1ccc([P+](=O)c2ccc(N(C)C)cc2)cc1 | 4.1% | 2 | 0% | -12%
Cc1cccc(N2C(=O)NC(=O)/C(=C/c3ccc([N+](=O)[O-])o3)C2=O)c1 | ? | -3 | -3% | ?
O=C(Cc1ccccc1)Oc1ccc(N2C(=O)CCC2=O)cc1 | 0.6% | 3 | -6% | 1%
CP(=O)(O)CCCN | 2.3% | 4&-1&-4 | -1% | -1%
O=P(Nc1c(Cl)cccc1Cl)(c1ccccc1)c1nc2c(s1)CCCC2 (stereo not given) | 5.0% | 6 | 0% | 3%
CN(C)CCN=Cc1c(O)n(-c2cccc(C(F)(F)F)c2)c(=O)[nH]c1=O | 0.1% | 0 | 1% | -4%
Cc1cc(N2C(=O)C3CCCN3C2c2cccc(Cl)c2)no1 (stereo not given) | 2.8% | -4 | -3% | 0%
CCC(C)NC(=O)c1c(N)n(CCCOC)c2nc3ccccc3nc12 (stereo not given) | ? | 15 | 7% | ?
O=C(c1ccc(Cl)cc1)C1CCCN(C2CCSCC2)C1 (stereo not given) | -0.6% | 3 | 0% | 0%
CC(C)(O)C(=O)Nc1ccc([N+](=O)[O-])c(C(F)(F)F)c1 | 1.5% | . | . | -3%
CN(C)c1cccc2c(C#N)ccc(N(C)C)c12 | 0.0% | -5 | 2% | 2%
Cc1cc(=O)n2[nH]c(C)cc2n1 | 8.6% | 1[21.1 µM] | -1% | 32%
Cc1ccc2[nH]c(C)c(CCNCc3ccco3)c2c1 | -2.3% | . | -1% | -7%
COc1ccc(C(=O)c2nc3ccccc3n2C(C)C)cc1OC | 0.4% | . | -9% | 3%
COc1ccccc1OCC#CCN1CCCC(C)C1 (stereo not given) | 1.3% | -4 | -1% | -17%
O=C(NC(c1ccc(Cl)cc1)P(=O)(Oc1ccccc1)Oc1ccccc1)OCc1ccccc1 (stereo not given) | -2.0% | 2 | -2% | 18%
COc1ccccc1C1CC2CCC(C1OC(C)=O)N2Cc1ccccc1 (stereo not given) | 1.0% | . | -2% | 17%
CCC(=NCc1ccc2c(c1)OCO2)c1c(O)n(C2CCCCC2)c(=O)[nH]c1=O | -1.2% | -1 | -2% | ?
O=c1[nH]c(=S)n(-c2ccccc2F)c(O)c1C=NCCN1CCNCC1 | 0.3% | . | -3% | -9%
COC(=O)C1=C(c2ccc(OC(F)(F)F)cc2)C[C@@H]2CC[C@H]1N2C(=O)NCCNC(C)=O | 0.4% | . | . | 1%
CN(C(=O)COC(=O)c1cn(C)c2ccccc12)C1CCCCC1 | -3.7% | . | . | -17%
CN1CCN(c2ccc(S(C)(=O)=O)cc2[N+](=O)[O-])CC1 | 3.4% | -5 | -2% | -17%
O=c1cccc2n1CC1CC2CN(Cc2cccc(Cl)c2Cl)C1 (stereo not given) | -0.5% | -7 | 25% | 1%
O=Cc1cn(CCCOc2ccccc2)c2ccccc12 | -1.9% | -3 | -18% | -4%
C[C@]12CC[C@H](O)C[C@H]1CC[C@@H]1C2CC[C@]2(C)[C@@H](C3=CC(=O)OC3)[C@@H](O)C[C@]12O (stereo not given in full) | -3.2% | . | . | 17%

Other results follow:
structure | Rango-impB inh | GLA inh pH 4.5 | miR-21 reporter | Rango release inh
COC(=O)C1=C(c2ccc(OC)c(OC)c2)C[C@@H]2CC[C@H]1N2C(=O)NC1CCCCC1 | -0.6% | . | . | ?
CC12CCC3C(CC=C4CC(O)CCC43C)C1C/C(=C\c1ccccc1F)C2=O (stereo not given) | 3.9% | 2 | -4% | -13%
O=C(c1ccccc1F)N1C[C@H]2C[C@@H](C1)c1cccc(=O)n1C2 | 2.9% | . | 1% | 1%
O=C(Oc1ccc(Br)cc1C(=S)N1CCCC1)c1ccccc1Cl | 6.3% | ? | 0% | 9%
O=c1c2ccccc2[nH]c(=S)n1-c1ccc2c(c1)OCO2 | -2.7% | 3 | -10% | 5%
Cc1c(/C=N/O)c2ccccc2n1C | 1.8% | -1 | -1% | -12%
O=[N+]([O-])CCO | -3.1% | . | . | 0%
O=C(C1CCC(=O)N1Cc1ccccc1Cl)N1CCC2(CC1)OCCO2 (stereo not given) | 1.6% | 9 | -1% | 6%
CN1CCN(C(=O)COc2ccc(C(C)(C)C)cc2Br)CC1 | -2.6% | -20 | -16% | 14%
O=C(NC1CCCCC1)Oc1cc2oc(=O)sc2cc1Cl | 0.8% | -16 | -15% | -22%
CS(=O)(=O)N1Cc2ccccc2-n2nncc2C1 | 1.4% | . | . | 32%

Screening data: PubChem BioAssay, National Center for Advancing Translational Sciences (NCATS)
